# Vaccinia Venus – vaccinia inhibition (Venus reporter). Potency, µM (highest dose often 36.5 µM), for inactives: at the highest dose activity change, negative = inhibition, most hits filed as inhibitors. 330,000 compounds, 0.46% hits. Vaccinia virus Venus reporter expression, fluorescence; active means well fitted inhibition curve with a large enough effect; inconclusive means small, poorly fitted or top-dose-only effect; inactive means no such curve, though single readings can be large or run the other way; tested in A549 cells; further: nearly all actives have a fitted effect of over 30% in size; inactives centre near -10
# VACV mCherry inh – vaccinia inhibition (mCherry reporter). Vaccinia virus mCherry reporter infection, fluorescence; about a quarter of the inactives have no number. Potency, µM (series often up to 36.5 µM), for the others: at the highest dose activity change, negative = inhibition, hits mostly inhibitors. 310,000 compounds, 0.63% hits; active = well fitted inhibition curve with a large enough effect; inconclusive = small, poorly fitted or top-dose-only effect; inactive = no such curve, though single readings can be large or run the other way; tested in A549 cells; further: nearly all actives have a fitted effect of over 35% in size; inactives centre near -10
# Numbers without * were called inactive; i = inactive; ? = inconclusive; · = no result given; & = joins results of further samples; [ ] = dose if it differs, or a comment. On the % scale 0 is the no-effect control and ±100 the full control effect; potency means the concentration at half of the fitted maximal effect.
# The first three entries (preview)
SMILES	Vaccinia Venus	VACV mCherry inh
C#CCOCCOCCOCCNc1nc(N2CCN(C(=O)CCCCCCCCCCNC(=O)Cn3cc(C[C@@H](C)O)nn3)CC2)nc(N2CCN(C(=O)CCCCCCCCCCNC(=O)Cn3cc(C[C@@H](C)O)nn3)CC2)n1	?	i
Cn1/c(=N\NC(=O)c2ccccc2Cl)sc2ccccc21	-8%	3%
C=CCn1c(C(CCCC)CC(C)O)n[nH]c1=S (centres undefined)	0%	-8%

# Results, from the first entry:
SMILES	Vaccinia Venus	VACV mCherry inh
C#CCOCCOCCOCCNc1nc(N2CCN(C(=O)CCCCCCCCCCNC(=O)Cn3cc(C[C@@H](C)O)nn3)CC2)nc(N2CCN(C(=O)CCCCCCCCCCNC(=O)Cn3cc(C[C@@H](C)O)nn3)CC2)n1	?	i
Cn1/c(=N\NC(=O)c2ccccc2Cl)sc2ccccc21	-8%	3%
C=CCn1c(C(CCCC)CC(C)O)n[nH]c1=S (centres undefined)	0%	-8%
Fc1ccc(-n2c(Cc3ccccc3)nnc2SCc2nc(-c3cccs3)no2)cc1	-10%	-24%
CCN(CC)CCNC(=O)COc1ccc(Cl)cc1Cl	-14%	i
COCCNC(=S)N1CCN(S(C)(=O)=O)CC1	-8%	i
Cc1ccc(NC(=O)c2cc(S(=O)(=O)NC3CCCCC3)ccc2F)cc1Cl	-28%	?
COc1ccc(NC(=O)C2CCN(C(=O)Cc3ccccc3)CC2)cc1OC	-7%	-2%
COc1cc(OC)cc(C(=O)Nc2cccc(-c3cn4cccnc4n3)c2)c1	-10%	-12%
CCNC(=O)N(C)c1c(CC)nc2ccc(C(=O)N3CCN(S(=O)(=O)CC)CC3)cn12	-6%	22%
C/C(=N\NC(=O)CN1CCN(Cc2ccccc2)CC1)c1ccncc1	-8%	i
CCCn1c2ccccc2c2cnn(CC(=O)N(CC)c3cc(C)ccc3C)c(=O)c21	-9%	-4%

# 3 structures already listed, arranged by molar mass, largest number first.
SMILES	Vaccinia Venus	VACV mCherry inh
CCNC(=O)N(C)c1c(CC)nc2ccc(C(=O)N3CCN(S(=O)(=O)CC)CC3)cn12	-6%	22%
COc1ccc(NC(=O)C2CCN(C(=O)Cc3ccccc3)CC2)cc1OC	-7%	-2%
COCCNC(=S)N1CCN(S(C)(=O)=O)CC1	-8%	i

# Reformatted with each value named: 2 of the compounds above.
CCNC(=O)N(C)c1c(CC)nc2ccc(C(=O)N3CCN(S(=O)(=O)CC)CC3)cn12
  Vaccinia Venus: -6% | VACV mCherry inh: 22%
C/C(=N\NC(=O)CN1CCN(Cc2ccccc2)CC1)c1ccncc1
  Vaccinia Venus: -8% | VACV mCherry inh: i

# Further records follow:
SMILES	Vaccinia Venus	VACV mCherry inh
Cc1ccc(-n2nnnc2SCC(=O)NC2CCCc3ccccc32)c(C)c1 (centres undefined)	-23%	-4%
CCOc1ccc(CCNS(=O)(=O)c2c(C)n[nH]c2C)cc1OCC	-4%	-12%
CCS(=O)(=O)c1ccc(C=NNc2nc3ccccc3o2)cc1	-11%	-26%
N#CC(c1ccccc1)c1ccc([N+](=O)[O-])cc1 (centres undefined)	11%	26%
Nc1ncc(S(=O)(=O)NCc2ccc(F)cc2)cn1	-4%	-13%
O=C(/C=C/c1c(Cl)nc2ccccn12)N1CCN(c2ccc(F)cc2)CC1	-5%	i
Cn1c(=O)c2cc(S(=O)(=O)NCCC(=O)NCc3ccccc3Cl)ccc2n(C)c1=O	-12%	i
COc1ccc(CCCc2nnc(SCC(=O)Nc3ccccc3F)o2)cc1C	0%	i
O=c1n(Cc2ccccc2F)c2ccccc2n1Cc1ccccc1F	?	?
Cc1ccc(Cl)cc1N1CCN(S(=O)(=O)c2cccc(S(=O)(=O)N3CCCC3)c2)CC1	-18%	·
Cc1ccc(NC(=O)c2ccc(OC(=O)C(C)Oc3ccc(Cl)cc3C)cc2)cc1 (centres undefined)	4%	-3%
CCOP(=O)(Cc1ccc(C(=O)CC)o1)OCC	0%[7.34 µM]	i[7.34 µM]
CC(=O)c1ccc(-c2cc([C@H]3[C@H]4C=CC[C@@H](C)[C@@H]4C(=O)N3Cc3ccccc3)ccc2F)cc1	?	-19%
COc1ccc(CCN2C(=O)CC(C(C)c3ccccc3)C2=O)cc1OC (centres undefined)	1%	i
COCC1CCCN(Cc2cn(-c3ccccc3)nc2-c2ccc3c(c2)OCO3)C1 (centres undefined)	-10%	-15%
CNC(=O)c1[nH]cnc1C(=O)Nc1cccc(Cl)c1	?	-3%
COc1cccc(C(=O)Oc2cc(C)[nH]c(=O)c2[N+](=O)[O-])c1	-8%	i
O=C1CC(CC(=O)N2CC3CCCC2C3)(c2cccc(F)c2)C(=O)N1Cc1cccnc1 (centres undefined)	-1%	-9%
O=C(NNC(=O)C1CC1c1ccccc1)Nc1ccccc1 (centres undefined)	-6%	i
COCCNC(=O)/C(C#N)=C1\N=C(N)c2ccccc21	-10%	-29%
CCCCN1C(=O)C(=O)N(CC(=O)N2CCc3ccccc32)C1=O	-11%	-7%
CN(CCc1ccccc1)C(=O)c1cccc(NC(=O)Cc2cccc([N+](=O)[O-])c2)c1	-24%	?
C[C@]12CCC3C(CC[C@H]4C[C@@H](O)CC[C@]34C)C1CC[C@@H]2OC(=O)[C@H](N)CCCCN (some centres undefined)	2%	-12%
Cc1ccc2cc(-c3noc(C4CCCO4)n3)c(=O)[nH]c2c1 (centres undefined)	-7%	-16%
Cc1n[nH]c(=O)c2c(NC(=O)CSc3ccc(Br)cc3)oc(C)c12	-14%	-17%
Cc1ccc(S(=O)(=O)NCC[C@@]2(C)C3CCC2(C)C(=O)C3)cc1 (some centres undefined)	-13%	-16%
COc1ccc(NC(=O)CN(C)C(=O)c2cc(-c3ccncc3)nc3ccccc23)cc1	-11%	-15%
CCN1C(=O)C(Cc2nc3ccccc3c(=O)n2C)c2ccccc21 (centres undefined)	28%	·
COC(=O)CC1(CC(N)=O)SCCS1	-7%	i
CC1=C(C(=O)OCCCBr)C(c2ccc3c(c2)OCO3)NC(=O)N1 (centres undefined)	-7%	0%
CN=C1SC(CC(=O)Nc2sc3c(c2C#N)CCCC3)C(=O)N1C (centres undefined)	-5%	-22%[1.46 µM]
CCOc1ccc(CCNC(=O)Cn2nc(C)n3c(cc4occc43)c2=O)cc1OCC	-3%	-17%
CCC(=O)Nc1ccccc1-c1nc2ccccc2n(Cc2cccc(Br)c2)c1=O	?	-26%
CC(OC(=O)c1cccc(-n2cnnn2)c1)C(=O)NCc1ccccc1 (centres undefined)	-9%	-4%
CN(C)CCOCCOc1ccccc1-c1ccccc1	-15%	i
O=C(COC(=O)CCc1ccc(S(=O)(=O)N2CCOCC2)cc1)NC1CCCCCC1	-7%	i
CCOC(=O)CN(C)C(=O)CCc1nnc(-c2ccc(-c3ccccc3)cc2)o1	-11%	i
COc1ccc(-c2cn3c(n2)sc2cc(C(=O)NCc4ccccc4)ccc23)cc1	-28%	?
N=c1c(C(=O)NC2CCCC2)cc2c(=O)n3ccccc3nc2n1C1CCCCC1	-8%	-9%
CC(C)CC(c1nnnn1CC1CCCO1)N1CCN(Cc2ccc3c(c2)OCO3)CC1 (centres undefined)	-10%	·
C=CCn1c(N)cc(=O)nc1SCC(=O)N1CCN(c2ccc(F)cc2)CC1	-5%	i
O=[N+]([O-])c1cccc(-c2ccc(/C=N/NC(=S)Nc3cccc(F)c3)o2)c1	-16%	-6%
CC(=O)Nc1cc(-c2cccc(C(=O)N(C)C)c2)cn2c(-c3ccc(F)cc3)cnc12	-5%	-6%
C/C(CC(=O)Nc1ccc(C)c(Cl)c1)=N\NC(=O)c1ccco1	-13%	-4%
O=C(NNC(=S)NC1CCCCC1)c1cccc(S(=O)(=O)Nc2ccccc2Cl)c1	13%	i
CC(C)(C)c1ccc(C(=O)Nc2ncn[nH]2)cc1	0%	-3%
COC(=O)CSc1ccc(S(=O)(=O)N2CCC(C)CC2)cc1[N+](=O)[O-]	-9%	-1%
Cc1ccc(-c2c(C(=O)N(C)Cc3ccccc3)oc(=O)c3ccccc23)cc1	-14%&-15%	-13%&4%

# Quoted at random: five compounds from above.
SMILES	Vaccinia Venus	VACV mCherry inh
CC(=O)Nc1cc(-c2cccc(C(=O)N(C)C)c2)cn2c(-c3ccc(F)cc3)cnc12	-5%	-6%
COC(=O)CSc1ccc(S(=O)(=O)N2CCC(C)CC2)cc1[N+](=O)[O-]	-9%	-1%
O=C(NNC(=S)NC1CCCCC1)c1cccc(S(=O)(=O)Nc2ccccc2Cl)c1	13%	i
CC(C)CC(c1nnnn1CC1CCCO1)N1CCN(Cc2ccc3c(c2)OCO3)CC1 (centres undefined)	-10%	·
N=c1c(C(=O)NC2CCCC2)cc2c(=O)n3ccccc3nc2n1C1CCCCC1	-8%	-9%

# Next part
SMILES	Vaccinia Venus	VACV mCherry inh
CCC(C)NC(=O)c1cc2c(Cl)nc3ccc(C)cc3c2s1 (centres undefined)	-11%	-9%
Cc1sc2ncn(CC(=O)NCc3ccco3)c(=O)c2c1-c1ccc(F)cc1	-18%	-12%
CCCN1CNC(=S)N(c2ccccc2OC)C1	-14%	i
O=C(NCC1CCC2(CCN(Cc3cccc4cccnc34)CC2)O1)c1ccco1 (centres undefined)	0%	i
CCC(=O)N(C)CCc1cc2c(c(OC)c1/C=N/NC(=O)c1ccc(Br)cc1)OCO2	-14%	-18%
O=C(Nc1ccn(C2CCC(CO)O2)c(=O)n1)c1ccccc1 (centres undefined)	4%	4%
COC(=O)c1ccc(/C=N\n2c(C)nnc2C)cc1	-6%	-17%
O=C(Nc1ccc(NC(=O)c2cccs2)c(Cl)c1)c1cccs1	-17%	1%
CCCCn1c(N)c(N(CC(C)C)C(=O)c2oc3c(Cl)cccc3c2C)c(=O)[nH]c1=O	3%	-23%
CCN(Cc1ccccc1)C(=O)Cn1c(=O)n(-c2ccc(Cl)cc2)c(=O)c2c(C)c(C)sc21	-14%	i
Cc1ccc(S(=O)(=O)NC2(C(F)(F)F)NC(=O)N(CCc3ccccc3)C2=O)cc1 (centres undefined)	-1%&5%	0%&-7%
CC(C)C(NC(=O)c1ccccc1F)C(=O)OCC(=O)c1ccc(F)cc1 (centres undefined)	-5%	i
COc1ccccc1/C=N/NC(=O)CO	-1%	0%
CCCCn1c(N)c(N(CC(C)C)C(=O)Cc2ccc(S(=O)(=O)N3CCOCC3)s2)c(=O)[nH]c1=O	25%	-13%
Clc1ccc(Oc2nc(N3CCOCC3)nc(N3CCOCC3)n2)c(C2CCCCC2)c1	0%	i
CN(C)c1ccc(/C=C(\NC(=O)c2ccccc2)C(=O)NCCCn2ccnc2)cc1	-4%	-4%
CC1CC2=C(C(=O)O1)C(c1ccccc1)Nc1ccccc1N2 (centres undefined)	-7%	-11%
Cc1ccc(C2=C(O)C(=O)C(c3ccc(C)cc3)=C(O)C2=O)cc1	-7%	i
COc1ccc(Cc2nnc(SCC(=O)Nc3ccc(C)c(C)c3)o2)cc1OC	-3%	-26%
O=C(NCC1CCCO1)c1ccc(S(=O)(=O)N2CCC(c3nc4ccc(Cl)cc4[nH]3)CC2)cc1 (centres undefined)	-25%	-2%
Cc1cc(NC(=O)Cc2ccccc2)ccc1NC(=O)c1cccs1	-15%	i
c1ccc(-c2nnnn2-c2ccccn2)cc1	-6%	i
c1ccc(Nc2nc(-c3ccncc3)nc3ccccc23)cc1	-11%	-7%
COc1ccc2c(CCNC(=O)/C=C/c3ccc(OC)c(OC)c3)c[nH]c2c1	-29%	?
COc1ccc(-c2nc3ccccc3nc2-c2ccccc2)cc1	-10%	i
Cc1ccc(C(=O)OCC2OC3OC(C)(C)OC3C2O)cc1 (centres undefined)	-8%	-20%
COc1ccc(NC(=S)NCc2ccc3c(c2)cc(C)n3C)cc1	-26%	-2%
COc1ccc(C(=O)C[n+]2ccc(N(C)C)cc2)cc1	-16%	i
Cc1cc(C(=O)CCl)c(C)n1-c1c(C)n(C)n(-c2ccccc2)c1=O	?	?
CCC1CCCCN1CCCNC(=O)CN1C(=O)COc2ccc(S(=O)(=O)N3CCC(C)CC3)cc21 (centres undefined)	-16%	-20%

# Screens from PubChem.
